# High-throughput results as filed in PubChem BioAssay.
# Arbovirus inh = arbovirus infection inhibition; AID 1251; actives 0.37% (n = 200,000); inhibition, % at 10 µM; arbovirus infection cell-based antiviral screen;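 active = inhibition from about 30%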;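 also: bluetongue infection of BSR cells; cell survival read as ATP light after 72 h; 0% = infected wells without compound and 100% = uninfected wells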
# Mtb growth = M. tuberculosis H37Rv growth inhibitors, H37Rv strain (AID 1626); M. tuberculosis H37Rv growth inhibition; higher % means a stronger effect; actives 0.95% (n = 220,000); one-dose inhibition, % at 10 µM; IC50 in µM for titrated hits;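 active = confirmed in a dose series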;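 also: bacteria incubated seven days before Alamar blue readout; 0% = bacteria only wells and 100% = bacteria with antibiotic wells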
# Mtb bLac sens = beta-lactam sensitization of Mtb H37Rv; M. tuberculosis H37Rv growth with meropenem, percent inhibition; hits of this screen are not shown here; inhibition, % at 25 µM; actives 0.27% (n = 330,000);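 active = about 74% or more and at least 40 points above the plate without the antibiotic, then above 30% in a dose series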;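 also: growth measured after seven days incubation then overnight dye step; 0% = bacteria only wells and 100% = bacteria with antibiotic; twin plates without the antibiotic show which effects depend on it; some results filed as inactive read as strong as hits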
# YopH inh = inhibitors of Yersinia enterocolitica YopH tyrosine phosphatase; actives 0.16% (n = 140,000); fluorescence Ex485/Em525; inhibition, %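 (about 10 µM by stock and volumes)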;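 active = inhibition of 50% or more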;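 also: controls were vehicle for no effect and minimum signal wells for full effect; inactives centre near -20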
# RecA intein inh = Mtb RecA intein splicing inhibition; inhibition, %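 (about 9 µM by stock and volumes)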; actives 0.75% (n = 290,000); cell-free RecA intein splicing, fluorescence; AID 2221; P9WHJ3; in the data active = inhibition above about 30%;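 also: 0% = vehicle wells and 100% = reference inhibitor control wells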
# Target sequence (P9WHJ3 whole entry, looked up): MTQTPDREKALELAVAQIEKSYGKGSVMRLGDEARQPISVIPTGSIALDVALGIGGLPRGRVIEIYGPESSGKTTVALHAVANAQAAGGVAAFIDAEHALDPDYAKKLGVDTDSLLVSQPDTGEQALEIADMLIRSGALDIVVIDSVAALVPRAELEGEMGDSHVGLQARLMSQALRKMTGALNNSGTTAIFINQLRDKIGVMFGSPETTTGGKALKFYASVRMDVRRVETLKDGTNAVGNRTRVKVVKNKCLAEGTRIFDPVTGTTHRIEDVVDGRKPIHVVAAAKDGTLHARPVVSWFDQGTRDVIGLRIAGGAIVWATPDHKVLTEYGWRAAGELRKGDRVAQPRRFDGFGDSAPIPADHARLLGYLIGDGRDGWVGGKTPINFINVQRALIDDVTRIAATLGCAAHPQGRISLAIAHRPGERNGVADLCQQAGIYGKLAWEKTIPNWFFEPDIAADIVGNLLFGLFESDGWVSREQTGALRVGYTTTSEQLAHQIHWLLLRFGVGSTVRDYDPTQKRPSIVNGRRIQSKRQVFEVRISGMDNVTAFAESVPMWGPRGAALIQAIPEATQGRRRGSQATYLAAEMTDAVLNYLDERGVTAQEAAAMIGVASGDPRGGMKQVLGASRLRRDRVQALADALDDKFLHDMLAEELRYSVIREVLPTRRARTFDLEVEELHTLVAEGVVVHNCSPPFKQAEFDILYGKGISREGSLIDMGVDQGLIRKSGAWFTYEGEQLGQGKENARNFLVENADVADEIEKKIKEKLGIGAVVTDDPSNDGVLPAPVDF
# Arbovirus inh repeat = recorded beside Arbovirus inh, whose call it bears; inhibition, %; measured here: 10K subset replicate screen; many hits read low in the repeat;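 first of two repeat runs on a subset; 0% = infected and 100% = uninfected wells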
# * hit, by the source's call; / = no result given. Not all compounds are listed; count on the stated rates, not on these rows.
SMILES,Arbovirus inh,Mtb growth,Mtb bLac sens,YopH inh,RecA intein inh,others
Cc1cccc(NC(=S)N/N=C/C(C)c2ccccc2)c1C (centres undefined),6,1%,5,/,5.3,
COc1cc2c(cc1OC)C(c1cc([N+](=O)[O-])ccc1O)NCC2 (centres undefined),0,-9%,2,/,0.5,
O=C(NCCc1c[nH]c2ccccc12)c1ccc2nc[nH]c2c1,/,/,-8,/,2.2,
O=C(Nc1cc(=O)[nH]c2ncnn12)c1ccccc1F,/,-14%,-9,/,-0.2,
CC(C)(C)C(=O)Nc1nnc(SCC(=O)NC2CC2)s1,/,/,1,/,-4.6,
CCCCc1c(O)nc(SCC(=O)N2CCOCC2)n(-c2ccccc2C)c1=O,6,2%,0,-28,0.6,
Cc1cc(C(C)(C)C)c(O)c(C)c1CC1=NCCN1,1,3%,-12,-40,-0.3,
O=C(COC(=O)c1ncc(Cl)c(Cl)c1Cl)c1ccc(Cl)s1,4,-14%,5,-28,-4.5,
CC(=O)Nc1ccc(S(=O)(=O)NCC2CCC(C(=O)N3CC(C)CC(C)C3)CC2)cc1 (centres undefined),/,/,-3,/,0.1,
CCN1C(=O)C2(/C(=C(\O)c3ccc4c(c3)OCCO4)C(=O)C(=O)N2CCCOC)c2ccccc21 (centres undefined),-3,-10%,-5,-39,-4.5,
Cc1ccccc1NC(=O)COC(=O)c1cc(=O)c2ccccc2o1,23,-6%,2,/,-1.3,
CN(C(=O)C1CCCO1)c1nnc(-c2ccccn2)s1 (centres undefined),5,5%,-7,-40,2.4,
Cc1ccc(CN2C(=O)S/C(=C\c3ccccc3OCC(=O)O)C2=O)cc1,10,-8%,-2,/,9.0,
Cc1nc(SCC(=O)OCc2ccccc2)c(C#N)c(-c2ccccc2)c1C(=O)Nc1ccccc1,6,2%,81,-13,/,
COc1ccc(C2C(C#N)=C(N)SC(N)=C2C#N)cc1OC,1,-6%,6,-11,0.1,

# Next part; it opens with the two that closed the last part.
SMILES,Arbovirus inh,Mtb growth,Mtb bLac sens,YopH inh,RecA intein inh,others
Cc1nc(SCC(=O)OCc2ccccc2)c(C#N)c(-c2ccccc2)c1C(=O)Nc1ccccc1,6,2%,81,-13,/,
COc1ccc(C2C(C#N)=C(N)SC(N)=C2C#N)cc1OC,1,-6%,6,-11,0.1,
CCCCSc1cc(C)nc(N)n1,/,38%,85,/,1.6,
O=c1[nH]cc(N=Cc2cc([N+](=O)[O-])ccc2O)c(=O)[nH]1,/,/,6,/,50*,
CCC(NC(=O)c1cc(COc2ccc(Cl)cc2OC)on1)c1ccncc1 (centres undefined),/,/,-3,/,2.8,
CCCn1c(=N)n(CC(=O)c2cccs2)c2ccccc21,11,10%,-5,-31,-0.2,
COc1ccc(CN2CC(C(=O)NCCCN3CCN(C)CC3)CC2=O)cc1 (centres undefined),16,-2%,-2,-22,0.3,
COc1ccc(NC(=O)NNc2cc(N3CCOCC3)nc(N3CCOCC3)n2)cc1,7,0%,1,/,2.8,
CCN(CC)C(=O)c1ccc(N(Cc2ccccc2)S(C)(=O)=O)cc1,/,/,-8,/,0.1,
COC(=O)C1=C(c2cc3ccccc3o2)C[C@@H]2CC[C@H]1N2C(=O)NC1CCCCC1,/,2%,12,/,0.4,
O=c1oc2ccccc2c2c1C(O)CO2 (centres undefined),/,/,-6,/,-2.8,
COc1ccc(-c2nc3ccccc3c(=O)n2NC(=O)Cc2ccccc2)cc1,1,3%,4,-3,0.1,
CCOC(=O)C1=C(O)/C(=C/c2cccc(OC)c2O)N=C1C,7,5%,-4,/,-3.4,
CCOc1ccc(/C=N/n2nnnc2N)cc1O,/,-6%,-6,/,-4.3,
CCOCCn1cnc2sc(C(=O)NCCCN3CCOCC3)c(C)c2c1=O,/,/,-5,/,-3.4,
CN1CCN(C(=O)CCN2C(=O)c3ccccc3S2(=O)=O)CC1,/,/,1,/,-3.0,
CC(C)CN(Cc1cc(=O)oc2cc(-c3ccccc3)c(O)cc12)CC(C)C,/,10%,1,/,1.8,
CCOc1ccc(C(=O)NCCCN2CCOCC2)cc1OCC,7,7%,5,/,0.0,
O=C(Nc1ccc(C2CCCCC2)cc1)C1CCCN(c2ncccn2)C1 (centres undefined),/,-4%,2,/,0.2,
CCCCc1ccc(NC(=O)N2CCN(c3cc(C)nc4ccccc34)CC2)c(C)c1,/,/,35,/,-1.0,
O=C(Nc1ccc2oc(-c3ccccc3Cl)nc2c1)c1ncn[nH]1,-3,6%,-1,3,0.4,
COc1ccc(-c2nnn(Cc3ccccc3)n2)cc1,/,/,-1,/,-2.4,
CC(=O)Nc1ccc(NC(=O)CSc2nc3ccccc3o2)cc1,-5,3%,0,-28,0.1,
Cc1cc(NC(=O)Cn2nnc3sc4c(c3c2=O)CCCC4)no1,4,3%,-4,-1,2.0,
Cc1cc(NC(=O)Nc2ccc(F)cc2)no1,3,-8%,-14,8,3.4,
CCC1(c2ccc(N)cc2)CCC(=O)NC1=O (centres undefined),/,-7%,-9,/,-0.9,
O=C(NNC(=O)c1ccccc1O)c1ccc(S(=O)(=O)Nc2ccccc2F)cc1,/,/,-2,/,10,
Cc1nc(-c2ccc(S(=O)(=O)NCC3CCN(C(=O)OC(C)(C)C)CC3)s2)cs1,/,/,70,/,1.8,
Cc1cc(C)c(-c2csc(NC(=O)/C=C/c3cccs3)n2)c(C)c1,-13,4.7µM*,100,-14,3.7,
CCOC(=O)CSc1nc(C)c(C(C)=O)cc1C(N)=O,1,1%,2,/,-0.5,
O=C(c1ccccc1)c1cccn1CC(=O)N1CCN(c2ccc(F)cc2)CC1,10,1%,-20,-30,3.3,
CCOc1ccc(CNCCc2ccc(S(N)(=O)=O)cc2)cc1,-5,7%,4,/,-0.1,
CCOC(=O)N1CCN(C(=O)Cn2cc3c(n2)CCCC3)CC1,1,-11%,-1,-29,-3.4,
COC(=O)c1cc(C)sc1NC(=O)CCCC(=O)O,0,-4%,0,-12,-1.5,
COc1cc(NC(=O)c2ccc(C)cc2)c(OC)cc1NC(=O)CN1CCOCC1,-2,9%,80,-27,7.6,
C/C=C\C=C/C(=O)Nc1cccc(C2=NOC3(C2)C[C@H](C(N)=O)N(C(=O)CC)C3)c1 (some centres undefined),/,-4%,-9,/,-0.1,
CCC(OC(=O)CCc1nc2ccccc2[nH]c1=O)C(=O)c1ccccc1 (centres undefined),-1,4%,13,-15,3.4,
COC(=O)c1cc(S(=O)(=O)N2CCC(c3ccccc3)C2)c[nH]1 (centres undefined),/,/,9,/,-0.2,
COc1ccc(CCNC(=O)CSc2nnc(NC(C)=O)s2)cc1OC,2,1%,5,1,0.0,
O=C(c1ccc(COc2ccccc2Cl)o1)N1CCCC1,11,9%,2,-9,3.0,
CC(C)Nc1oc(Cc2cccc3ccccc23)nc1C#N,5,-3%,-2,-42,-30,
O=C(Cc1ccccc1[N+](=O)[O-])N1CCN(c2ccc(F)cc2)CC1,3,-3%,-1,/,-1.1,
CCC(C)c1ccc(S(=O)(=O)N2CCN(S(=O)(=O)c3ccc(NC(C)=O)cc3)CC2)cc1 (centres undefined),/,/,2,/,0.4,
COCCCN1C(=O)c2ccc(C(=O)O)cc2C1=O,5,-3%,2,-13,-0.7,
CC(C)(C)n1nnnc1C(c1cccnc1)N1CCN(c2ccccn2)CC1 (centres undefined),5,0%,-4,/,-0.3,
CCc1ccc(C(=O)COC(=O)c2cccnc2Cl)cc1,-5,1%,-6,/,2.6,
COc1ccc(OC)c(/C=N/NC(=O)c2cc(-c3ccc(C)o3)nc3ccccc23)c1,-5,-1%,25,-14,-5.6,
CC(=O)Nc1ccc(NC(=O)Cn2cc3c(n2)CCC(C)C3)cc1 (centres undefined),-2,-6%,/,-27,-0.5,
CC(=O)N1CCc2cc(S(=O)(=O)NC(C(=O)Nc3ccc4c(c3)OCCO4)C(C)C)ccc21 (centres undefined),7,4%,-1,-16,2.1,
CCCCN1CN(Cc2ccco2)CNC1=S,10,0%,-5,-5,2.3,
COC(C(=O)NC(C(C)C)C(C)C)c1ccccc1 (centres undefined),-8,2%,2,-28,7.1,
CC(C(=O)Nc1c2c(cc3c1CCC3)CCC2)N1CCCC1 (centres undefined),10,-5%,-2,-24,-0.9,
COc1ccc(NC(=O)c2cnc(C)cn2)cc1-n1cnnn1,-5,-6%,-12,13,1.4,
COc1cc(/C=C2\SC(=S)N(N3CCOCC3)C2=O)cc(OC)c1OC,-6,2%,6,-29,4.3,
COc1ccc(C(=O)c2ccc(OC)c(OC)c2)cc1OC,-3,-1%,-3,-19,/,
CCC12CN3CC(CC)(CN(C1)C31C(=O)N(C)c3ccc(C)cc31)C2=O (centres undefined),12,-6%,-3,/,-1.4,
CC1CN(C(=O)C2CCCC2)C(C)CN1C(=O)C1CCCC1 (centres undefined),7,4%,-8,-28,-1.8,
C[C@H]1C/C=C/[C@H]2[C@H](O)[C@H](C)[C@@](C)(O)[C@H]3[C@H](Cc4ccccc4)NC(=O)[C@]32[C@H](O)/C=C/[C@](C)(O)C1,/,-11%,-14,/,-2.2,
CCOc1ccc(NC(=O)CSc2nc3[nH]ncc3c(=O)n2-c2ccccc2OC)cc1,2,-4%,5,-6,1.4,
CC(=O)N1CCN(CC(=O)Nc2sccc2C#N)CC1,9,5%,-4,/,3.8,
COC(=O)c1ccc(Sc2ccc(Cl)cc2)c(N)c1,7,3%,-6,14,10,
O=C(COC(=O)/C=C/c1ccccc1)Nc1ccccc1Br,-1,-1%,-2,-10,-1.5,

# (next part)
SMILES,Arbovirus inh,Mtb growth,Mtb bLac sens,YopH inh,RecA intein inh,others
CCOc1c(OC)cc(C2C(C#N)=C(N)Oc3n[nH]c(-c4ccncc4)c32)cc1OC (centres undefined),7,-3%,1,-22,23,
Cc1ccc(NC(=O)c2nc[nH]c2C(=O)N2CCC(C)CC2)cc1,/,-5%,42,/,-1.2,
COc1ccc(S(=O)(=O)N2CCC(C(=O)N3CCCCC3)CC2)cc1,/,/,-7,/,5.6,
CCc1ccc(NC(=O)C2CCN(S(=O)(=O)c3c(C)noc3/C=C/N(C)C)CC2)cc1,/,/,2,/,-6.6,
COc1ccc(C=NCC2COc3ccccc3O2)cc1OC (centres undefined),7,-6%,0,-14,0.4,
Cc1c(C(=O)N2CCCCC2)sc(NC(=O)C(C)C)c1C#N,-3,-2%,4,-39,0.8,
COC(=O)CSC1=C(C#N)C(c2ccccc2OC)C(C(=O)OC)C(=O)N1 (centres undefined),3,-3%,-2,0,-0.6,
CNC(=O)C1C2C=CC3(O2)C1C(=O)N(C1CC1)C3C(=O)NCc1ccc(OC)cc1 (centres undefined),5,-13%,-5,4,-0.5,Arbovirus inh repeat=5

# Structures above that have a halogen (12):
SMILES,Arbovirus inh,Mtb growth,Mtb bLac sens,YopH inh,RecA intein inh,others
O=C(Nc1cc(=O)[nH]c2ncnn12)c1ccccc1F,/,-14%,-9,/,-0.2,
O=C(COC(=O)c1ncc(Cl)c(Cl)c1Cl)c1ccc(Cl)s1,4,-14%,5,-28,-4.5,
CCC(NC(=O)c1cc(COc2ccc(Cl)cc2OC)on1)c1ccncc1 (centres undefined),/,/,-3,/,2.8,
O=C(Nc1ccc2oc(-c3ccccc3Cl)nc2c1)c1ncn[nH]1,-3,6%,-1,3,0.4,
Cc1cc(NC(=O)Nc2ccc(F)cc2)no1,3,-8%,-14,8,3.4,
O=C(NNC(=O)c1ccccc1O)c1ccc(S(=O)(=O)Nc2ccccc2F)cc1,/,/,-2,/,10,
O=C(c1ccccc1)c1cccn1CC(=O)N1CCN(c2ccc(F)cc2)CC1,10,1%,-20,-30,3.3,
O=C(c1ccc(COc2ccccc2Cl)o1)N1CCCC1,11,9%,2,-9,3.0,
O=C(Cc1ccccc1[N+](=O)[O-])N1CCN(c2ccc(F)cc2)CC1,3,-3%,-1,/,-1.1,
CCc1ccc(C(=O)COC(=O)c2cccnc2Cl)cc1,-5,1%,-6,/,2.6,
COC(=O)c1ccc(Sc2ccc(Cl)cc2)c(N)c1,7,3%,-6,14,10,
O=C(COC(=O)/C=C/c1ccccc1)Nc1ccccc1Br,-1,-1%,-2,-10,-1.5,
